Source: PubChem
D2 agonist = Beta-Arrestin HTS for Positive Allosteric Modulators of the Human D2 Dopamine Receptor: Agonists; 360,000 tested, 0.084% active; activation, % (concentration not given with the values); DiscoveRx PathHunter D2 beta-arrestin, luminescence, 90 min; 100% = 57 uM dopamine signal; D(2) dopamine receptor (Homo sapiens), P14416; in the data active = activation above about 40%; inconclusive = about 15% to 40%; inactive = below about 15%; further: compound concentration not given in the record; the text of the record calls up to 30% inactive
Target sequence (P14416 whole entry, looked up): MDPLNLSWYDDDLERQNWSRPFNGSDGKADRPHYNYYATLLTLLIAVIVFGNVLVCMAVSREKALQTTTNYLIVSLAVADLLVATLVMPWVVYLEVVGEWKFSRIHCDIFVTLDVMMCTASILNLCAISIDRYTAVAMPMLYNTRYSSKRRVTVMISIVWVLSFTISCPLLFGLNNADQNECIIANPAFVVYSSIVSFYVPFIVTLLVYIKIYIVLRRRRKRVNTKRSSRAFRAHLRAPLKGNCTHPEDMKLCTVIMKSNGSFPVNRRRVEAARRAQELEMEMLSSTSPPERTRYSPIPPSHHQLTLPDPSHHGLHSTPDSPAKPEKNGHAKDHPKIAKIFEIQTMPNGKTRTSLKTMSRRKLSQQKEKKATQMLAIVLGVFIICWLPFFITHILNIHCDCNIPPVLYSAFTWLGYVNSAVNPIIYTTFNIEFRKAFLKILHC
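Agonist mode: compounds alone added to overnight-plated D2 PathHunter cells for 90 min at 37 C, with 57 uM final dopamine (EC100) defining full response. Beta-arrestin recruitment detected by chemiluminescent reagent, read after 1 h at ambient temperature.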
gsp antag = qHTS for Antagonists of gsp, the Etiologic Mutation Responsible for Fibrous Dysplasia/McCune-Albright Syndrome: qHTS. gsp-mutant cells, cAMP HTRF, 30 min; control for the full effect not named in the record. AID 624288, 2012. 340,000 tested, 0.4% active. Potency, µM (titrated, usually from 76.9 µM), for inactives: at the highest dose activity change, negative = inhibition, actives largely listed as inhibitors; active = falling curve of any shape with a large fitted effect; inconclusive = falling curve, mostly with a smaller effect; inactive = flat or rising curve; cell line not stated here;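 further: intracellular cAMP measured with PDE inhibitor Ro 20-1724 present during compound exposure; potency means the concentration at half of the fitted maximal effect; on the % scale 0 is the no-effect control and ±100 the full control effect; nearly all actives have a fitted effect of over 65% in size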
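HTRF cAMP read-out (cAMP-d2 plus anti-cAMP antibody-K in lysis buffer, 30 min RT). Before lysis, cells are exposed to compounds with […] for 30 min at 37C in DPBS containing Ca/Mg, BSA and Tween 20.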
D2 potentiator = Beta-Arrestin HTS for Positive Allosteric Modulators of the Human D2 Dopamine Receptor: Potentiators; D(2) dopamine receptor (Homo sapiens), P14416; DiscoveRx D2 beta-arrestin cells, luminescence, 90 min; 100% = 57 uM dopamine signal; potentiation, % (test concentration not listed); AID 624464, 2012; 360,000 tested, 0.23% active; active = potentiation of 50% or more; inconclusive = 30% to 50%; inactive = 30% or less;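 further: compound concentration not given in the record; tested on top of an EC20 dose of dopamine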
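D2 cells co-treated with compound plus 50 nM dopamine (EC20) for 90 min at 37 deg C to detect potentiation. Beta-arrestin recruitment was read as enzyme-fragment luminescence after 1 h at ambient temperature. Full response was set by 57 uM dopamine.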
Six1-Eya2 blk = qHTS Assay for Inhibitors of the Six1/Eya2 Interaction | 360,000 tested, 0.56% active | AlphaScreen GST-Six1/His-Eya2 binding, biochemical; active compounds read low; control for the full effect not named in the record | activity change, % (no concentration beside the values) | AID 651725, 2012; in the data active = activity change below about -65%; inconclusive = about -30% to -65%; inactive = above about -30%; further: on the % scale 0 is the no-effect control and ±100 the full control effect
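AlphaScreen with GST-Six1 and His-Eya2 (5X mix: 250 nM and 500 nM), glutathione donor and nickel acceptor beads; buffer 50 mM Tris pH 8.0, 300 mM NaCl, 1 mM TCEP; 1 h at 37 C in the dark.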
CtBP-E1A blk = qHTS Assay for Inhibitors of the CtBP/E1A Interaction; AlphaScreen GST-E1A/His-CtBP binding, 1536-well; active compounds read low; control for the full effect not named in the record; activity change, % (concentration not given with the values); 340,000 tested, 0.49% active; AID 651724, 2012; in the data active means activity change below about -65%; inconclusive means about -30% to -65%; inactive means above about -30%; further: on the % scale 0 is the no-effect control and ±100 the full control effect
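Protein mix (5X: 125 nM each GST-E1A, His-CtBP) was incubated with pinned compound 2 h at 37 deg C in dark, in 50 mM Tris pH 8.0 buffer with 300 mM NaCl. Glutathione donor and nickel acceptor beads followed; AlphaScreen signal read after 1 h.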
gsp ag = qHTS for Agonist of gsp, the Etiologic Mutation Responsible for Fibrous Dysplasia/McCune-Albright Syndrome: qHTS. gsp mutant cells, cAMP HTRF, 30 min; control for the full effect not named in the record. Potency, µM (doses to about 76.9 µM), without a hit: top-dose activation (cAMP increase), most hits filed as activators. 340,000 tested, 0.13% active; active = well fitted activation curve with a large enough effect; inconclusive = small, poorly fitted or top-dose-only effect, or another doubt; inactive = no such curve, though single readings can be large or run the other way; cell line not stated here;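 further: phosphodiesterase inhibitor Ro 20-1724 added with compounds to block cAMP breakdown; potency means the concentration at half of the fitted maximal effect; nearly all actives have a fitted effect of over 60% in size; about a fifth of the inactives were tested at one dose only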
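Cells in DMEM/10% FBS with G418 were pretreated with compounds in DMSO plus […] (300 uM stock) for 30 min at 37C. cAMP was measured by HTRF (cAMP-d2 plus anti-cAMP antibody-K) after 30 min at room temperature.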
* hit, by the source's call; ? = inconclusive; . = no result given; [ ] = another dose, or the depositor's remark. Rows were taken by chance. About 1.4% of those tested had a hit in this group.

D2 agonist	gsp antag	D2 potentiator	Six1-Eya2 blk	CtBP-E1A blk	gsp ag	smiles
0.9	10%	17	-1	-16	-26%	CCCc1ccc(C(=O)NNC(=O)c2ccc(Cl)cc2)cc1
-1.1	9%	-12	1	7	?	CC(C)CN1C(Nc2ccccc2)=NC[C@@H]1C
-1.9	-14%	-10	-2	-5	-47%[inhibitor]	C=CCn1c(Cc2c(C)[nH]c3ccccc23)nnc1SCC(=O)NCc1ccc(F)cc1
-3.6	.	-15	-7	-1	.	O=C(Nc1cccc(Oc2ccccc2)c1)C1Cc2c(-c3cccc(F)c3)ccnc2O1 (stereo not drawn)
-0.2	-1%	-2	2	2	?	CCOC(=O)C1CCN(C(=O)c2cc3c(=O)n4ccccc4nc3s2)CC1
-0.7	-24%	0	-1	-1	8%	COc1cc(=O)[nH]c(SC(C)C(=O)Nc2ccc3ccccc3c2)n1 (stereo not drawn)
-3.3	-1%	-9	-4	-7	0%[15.4 µM]	CCC(=O)Nc1ccccc1Sc1ncnc2scc(-c3ccccc3)c12
-1.4	-11%	-7	-2	.	-2%[15.4 µM]	CNC(=S)NNC(=O)c1ccc(=O)n(Cc2cccc(C(F)(F)F)c2)c1
-4.1	-8%	-3	5	.	-72%[inhibitor]	C=CCNC(=S)NNC(=O)c1ccncc1
-3.5	-5%	-9	-2	4	12%	CCN(CC)C(=O)C(C)N(C#N)c1nc(NC(C)C)nc(NC(C)C)n1 (stereo not drawn)
2.2	-3%	6	-13	-23	-2%	O=C1CCCc2c1cc(-c1ccccc1)n2-c1ccc(O)cc1
-3.8	-4%	-9	3	.	?	CC(=O)/C(=N/Nc1ccccc1)Sc1nnc(C(O)c2ccccc2)n1-c1ccccc1 (stereo not drawn)

D2 agonist	gsp antag	D2 potentiator	Six1-Eya2 blk	CtBP-E1A blk	gsp ag	smiles
-1.0	5%	2	-6	-3	-4%	Cc1cccc(N2CC34C=CC(O3)C(C(=O)O)C4C2=O)c1 (stereo not drawn)
0.7	7%	-5	5	12	10%	COc1ccc(Cc2nnc3c4cnn(C)c4ncn23)cc1
1.2	7%	-2	2	7	-91%[inhibitor]	Cc1cc(C)c(S(=O)(=O)Nc2ccc(OCC(=O)O)cc2)c(C)c1
-4.5	4%	-13	2	.	-1%	CCOC(=O)N1CCC(NC(=O)c2ccc(Cl)cc2)CC1
-4.6	1%	1	7	-2	?	COc1nc(-c2ccc(Cl)cc2Cl)nc2ccccc12
-2.9	-9%	-17	-12	8	-18%	Nc1ccc(Cc2nc3cc4ccccc4cc3[nH]2)cc1
-4.5	-3%	-1	0	0	-6%[15.4 µM]	CC(C)NC(=O)CC1C(=O)NCCN1CC(c1ccccc1)c1ccccc1 (stereo not drawn)
-0.9	-8%	1	-12	7	2%[15.4 µM]	CC(=O)Oc1ccc(/C=C(\NC(=O)c2ccco2)C(=O)Nc2ccc(C(C)=O)cc2)cc1
3.4	-16%	-5	-3	.	-157%[inhibitor]	Cc1c(C(=O)OCC(=O)Nc2ccccc2OC(F)F)cccc1[N+](=O)[O-]
2.3	0%	16	-8	-12	-22%	CN(c1cccc(NC(=O)CN(c2ccc(C34CC5CC(CC(C5)C3)C4)cc2)S(C)(=O)=O)c1)S(C)(=O)=O
1.8	4%	-4	5	4	-34%[inhibitor]	O=C(CO)N/N=C/c1ccc(Cl)cc1
1.8	-19%	-8	1	-4	-24%	CC(=O)Oc1ccc(-c2nc3cc(Cl)ccc3c(=O)o2)cc1

D2 agonist	gsp antag	D2 potentiator	Six1-Eya2 blk	CtBP-E1A blk	gsp ag	smiles
-3.4	5%	-4	-3	0	-13%	CC1CC(C)CN(C(=O)Cn2nnc(-c3ccccc3)n2)C1 (stereo not drawn)
-0.1	-21%	-11	1	1	-3%	Cn1c(SCC(=O)N2CCN(S(=O)(=O)c3ccccc3)CC2)nc2ccccc21
-0.8	29%	-5	3	7	0%	CCOc1ccccc1NC(=O)CSc1nnc(-c2ccco2)o1
3.8	10%	14	-7	1	.	C=CCN1C=C2C(=O)C(C)(OC(=O)CCC(=O)OC)C(=O)C=C2C=C1C1CC1 (stereo not drawn)
-4.8	3%	-20	-8	-5	17%	COc1ccc2[nH]c(CN3CCN(CCC(C)C)C(CCO)C3)c(C)c2c1 (stereo not drawn)
-0.2	7%	-1	5	-5	-7%	COc1ccccc1CNC(=O)Cn1cnc2ccccc2c1=O
0.3	0%	-20	5	8	1%	Cc1ccc(OCC(=O)N2CCN(C(=O)c3cccnc3)CC2)cc1
?	-3%	13	?	.	-18%[15.4 µM]	CCOc1ccc(C(=O)c2ccc([N+](=O)[O-])cc2Cl)cc1
-4.1	-2%	-7	12	14	-2%[15.4 µM]	CC(=O)Nc1ccc(S(=O)(=O)Nc2nc3ccccc3nc2Nc2cccc(O)c2)cc1
-3.7	4%	-1	-4	0	-22%[15.4 µM]	Cc1ccc2c(c1)N(CC(=O)N1CCN(c3ccccc3)CC1)C(=O)C(C)O2 (stereo not drawn)
-3.6	0%	-6	0	1	-73%[inhibitor]	CCCn1nc(NS(=O)(=O)c2ccccc2)c2cc3ccccc3nc21
-2.3	6%	1	0	1	8%	O=C(NCCCN1CCCC1)c1cccc(N2CCCC2=O)c1

D2 agonist	gsp antag	D2 potentiator	Six1-Eya2 blk	CtBP-E1A blk	gsp ag	smiles
-8.9	.	-7	-13	-23	-16%	C[C@H](O)[C@@H]1CN2CCc3c([nH]c4ccccc34)[C@@H]2C[C@@H]1N(C)C(=O)Nc1ccc(F)cc1
13	-6%	16	0	-16	.	CCCCOc1ccc(OCCCN2CCOCC2)cc1
-4.4	-20%	-9	-13	7	18%	Oc1ccc(C(c2nnnn2CCc2ccccc2)N2CCN(c3nc4ccccc4s3)CC2)cc1 (stereo not drawn)
-0.2	8%	-3	3	0	17%[15.4 µM]	Cc1nnc(SCC(=O)O)o1
1.3	-21%	13	-22	-4	-4%	COc1ccc(-n2c(SCC(=O)Nc3sc4c(c3C#N)CCCC4)nnc2-c2ccccc2OC)cc1
9.0	-6%	-6	-1	6	-28%	CC[n+]1c(/C=C(\C)OC)sc2ccccc21
2.0	4%	-4	-3	-6	4%	CC(=O)N1CCc2cc(C(=O)CN3CCC(C)CC3)ccc21
-2.3	-7%	-2	2	4	19%	Cc1ccc(-c2cc(-c3ccccc3)nc(N)c2C#N)o1
0.6	3%	10	1	0	3%	CC(C1CC1)N(C(=O)c1ccccc1O)c1ccccc1 (stereo not drawn)
0.6	5%	4	1	-2	-7%	O=C1CC(c2ccc(Cl)cc2)n2nc(N3C(=O)CCC3=O)nc2N1 (stereo not drawn)
-2.8	-14%	-1	-1	4	10%	O=C(OCc1nnc(-c2ccccc2)o1)c1ccc2c(c1)OCCO2
4.7	1%	-6	8	4	-22%	Cc1ccc(CNC(=O)C2CCC(=O)N2Cc2ccccc2Cl)cc1 (stereo not drawn)

Random excerpt: 5 entries already listed
D2 agonist	gsp antag	D2 potentiator	Six1-Eya2 blk	CtBP-E1A blk	gsp ag	smiles
-0.2	8%	-3	3	0	17%[15.4 µM]	Cc1nnc(SCC(=O)O)o1
-4.4	-20%	-9	-13	7	18%	Oc1ccc(C(c2nnnn2CCc2ccccc2)N2CCN(c3nc4ccccc4s3)CC2)cc1 (stereo not drawn)
2.0	4%	-4	-3	-6	4%	CC(=O)N1CCc2cc(C(=O)CN3CCC(C)CC3)ccc21
0.6	5%	4	1	-2	-7%	O=C1CC(c2ccc(Cl)cc2)n2nc(N3C(=O)CCC3=O)nc2N1 (stereo not drawn)
-2.8	-14%	-1	-1	4	10%	O=C(OCc1nnc(-c2ccccc2)o1)c1ccc2c(c1)OCCO2

(further entries)
D2 agonist	gsp antag	D2 potentiator	Six1-Eya2 blk	CtBP-E1A blk	gsp ag	smiles
1.7	?	0	5	2	-29%[15.4 µM]	CCn1c(=NC(=O)c2cccc(N3C(=O)CCC3=O)c2)sc2c(C)ccc(OC)c21
-3.7	-17%	-8	0	3	-41%[inhibitor]	Cc1cc(C)cc(C(=O)NCC(=O)OCN2C(=O)c3ccccc3C2=O)c1
-2.1	15%	-7	-2	-6	16%	Cc1cccc(NC(=O)CCN2C(=O)C3C4C=CC(C4)C3C2=O)n1 (stereo not drawn)
7.0	-11%	-10	17	-28	-2%[15.4 µM]	CC1CCC(NC(=O)COC(=O)CSc2ccc(C(N)=O)cc2[N+](=O)[O-])CC1 (stereo not drawn)
-1.1	.	-7	4	0	-23%	CC1COC(=C2C(=O)OCC2C)C1 (stereo not drawn)

Full records as entered above. Order of screens: D2 agonist	gsp antag	D2 potentiator	Six1-Eya2 blk	CtBP-E1A blk	gsp ag
Cc1cccc(NC(=O)CCN2C(=O)C3C4C=CC(C4)C3C2=O)n1 (stereo not drawn) is listed as -2.1	15%	-7	-2	-6	16%
CCn1c(=NC(=O)c2cccc(N3C(=O)CCC3=O)c2)sc2c(C)ccc(OC)c21 is listed as 1.7	?	0	5	2	-29%[15.4 µM]
